# High-throughput results as filed in PubChem.
# CtBP-E1A inh = blocks the CtBP interaction with E1A | activity change, % (concentration not given with the values) | 0.49% of 340,000 active | AID 651724 | AlphaScreen GST-E1A/His-CtBP binding, 1536-well; stronger effect = lower value; control for the full effect not named in the record; in the data active means activity change below about -65%; inconclusive means about -30% to -65%; inactive means above about -30%; also: % is scaled to controls: 0 for no effect and ±100 for the full control effect
#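 AlphaScreen with 125 nM GST-E1A and 125 nM His-CtBP (5X stocks) in Tris pH 8.0, 300 mM NaCl, BSA, Tween 20, TCEP. Compounds preincubated 2 h at 37 deg C, then glutathione donor/nickel acceptor beads added for 1 h at 37 deg C in dark.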
# D2 ag = human D2 receptor agonism in beta-arrestin assay | AID 624465 | DiscoveRx PathHunter D2 beta-arrestin, luminescence, 90 min; 100% = 57 uM dopamine signal | activation, % (test concentration not listed) | P14416 | 0.084% of 360,000 active; in the data active = activation above about 40%; inconclusive = about 15% to 40%; inactive = below about 15%; also: compound concentration not given in the record; the text of the record calls up to 30% inactive
#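 DiscoveRx PathHunter D2 beta-arrestin cells (2,100/well) attached overnight, then compound-stimulated 90 min at 37 C in HBSS/10 mM HEPES/0.1% Tween-20 buffer; beta-galactosidase complementation read by luminescence after 1 h at ambient temperature. Dopamine 57 uM final (EC100) as control.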
# D2 PAM = potentiates the human D2 dopamine receptor allosterically. P14416. DiscoveRx D2 beta-arrestin cells, luminescence, 90 min; 100% = 57 uM dopamine signal. potentiation, % (concentration not given with the values). 0.23% of 360,000 active. AID 624464; active = potentiation of 50% or more; inconclusive = 30% to 50%; inactive = 30% or less;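 also: compound concentration not given in the record; tested on top of an EC20 dose of dopamine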
#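 PathHunter beta-arrestin assay in DiscoveRx D2 cells. Compounds were added with an EC20 of dopamine (50 nM final) for 90 min at 37 deg C. Luminescence was read 1 h after detection reagent, with 57 uM dopamine as the EC100 control.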
# TRPML1 agonist = activates the human TRPML1 channel. TRPML1-expressing cells, Ca2+ dye fluorescence, FDSS; host cell line not named in the record; reference of the full effect not given here. activation, % (no concentration beside the values). AID 624414. Q9GZU1. 0.12% of 410,000 active; in the data active = activation above about 50%; inconclusive = about 30% to 50%; inactive = below about 30%; also: 0% is about no effect; the text of the record puts the active cut at 80%
#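 Calcium fluorescence on an FDSS kinetic reader gave the read-out. Tet-induced TRPML1-DL cells were plated overnight, dye-loaded (Ca8 with quencher, 45-90 min, room temperature, dark), then read 110 s after compound addition, and again 110 s after 4uM final 54-4 (EC80).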
# Six1-Eya2 inh = blocks human Six1 binding to Eya2; activity change, % (concentration not given with the values); AlphaScreen GST-Six1/His-Eya2 binding, biochemical; stronger effect = lower value; control for the full effect not named in the record; 0.56% of 360,000 active; AID 651725; Q15475+O00167; in the data active = activity change below about -65%; inconclusive = about -30% to -65%; inactive = above about -30%; also: % is scaled to controls: 0 for no effect and ±100 for the full control effect
# Target sequence (O00167 whole entry, looked up): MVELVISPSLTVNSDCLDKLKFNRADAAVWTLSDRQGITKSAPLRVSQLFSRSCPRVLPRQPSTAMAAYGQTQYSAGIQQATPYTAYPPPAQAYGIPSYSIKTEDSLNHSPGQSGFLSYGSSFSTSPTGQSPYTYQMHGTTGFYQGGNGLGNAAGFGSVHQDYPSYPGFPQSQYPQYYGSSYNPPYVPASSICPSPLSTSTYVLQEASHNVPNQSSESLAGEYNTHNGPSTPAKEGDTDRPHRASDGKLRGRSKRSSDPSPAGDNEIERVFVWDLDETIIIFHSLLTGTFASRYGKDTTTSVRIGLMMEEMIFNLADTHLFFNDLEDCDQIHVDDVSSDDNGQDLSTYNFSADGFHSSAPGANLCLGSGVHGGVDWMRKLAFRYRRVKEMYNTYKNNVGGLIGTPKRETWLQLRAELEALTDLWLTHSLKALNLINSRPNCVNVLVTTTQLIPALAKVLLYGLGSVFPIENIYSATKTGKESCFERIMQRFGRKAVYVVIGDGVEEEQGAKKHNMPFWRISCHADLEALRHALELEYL
# Target sequence (Q15475 whole entry, looked up): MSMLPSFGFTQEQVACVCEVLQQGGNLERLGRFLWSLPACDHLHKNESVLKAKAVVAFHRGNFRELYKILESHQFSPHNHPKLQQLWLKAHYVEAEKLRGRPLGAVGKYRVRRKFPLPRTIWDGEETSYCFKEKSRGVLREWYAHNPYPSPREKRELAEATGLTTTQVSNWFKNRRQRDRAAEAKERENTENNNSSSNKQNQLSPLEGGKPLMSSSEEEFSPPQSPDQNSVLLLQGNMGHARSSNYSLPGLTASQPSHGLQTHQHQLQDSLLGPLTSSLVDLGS
#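 Homogeneous AlphaScreen proximity assay pairing GST-Six1 with His-tagged Eya2 (added as 5X mix: 250 nM and 500 nM) in 50 mM Tris pH 8.0, 300 mM NaCl, 1 mM TCEP. Glutathione donor and nickel acceptor beads; 1 h, 37 °C, dark.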
# PINK1 expr mod = PINK1 expression modulation; Potency, µM (series often up to 76.6 µM), without a hit: at the highest dose activation (PINK1 increase), usual class: activators; 0.2% of 410,000 active; PINK1 immunofluorescence, high-content cytometry, 24 h; active = well fitted activation curve with a large enough effect; inconclusive = small, poorly fitted or top-dose-only effect; inactive = flat fitted curve, though single readings scatter; cell line not stated here;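 also: potency is read from the fitted curve at half-maximal effect; % of control where 0% means no effect; nearly all actives have a fitted effect of over 65% in size; a mitochondrial uncoupler was the plate control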
#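 PINK1 protein level read as immunofluorescence by microplate cytometer in a fixed, stained stable cell line after 24 h exposure to five compound concentrations, with CCCP as control.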
# Starred values were filed as active, the others as inactive; ? = inconclusive; . = not tested or not shown; & = joins results of further samples; [ ] = another dose, or the depositor's remark. Not a hit list; any-hit rate near 1.3%.
mol,CtBP-E1A inh,D2 ag,D2 PAM,TRPML1 agonist,Six1-Eya2 inh,PINK1 expr mod
O=C(CN1C(=O)c2ccccc2S1(=O)=O)Nc1ccc(S(=O)(=O)N2CCCCC2)cc1,-1,0.5,7,-0.6,-6,2.6%
Cc1cc(N2C(=O)C(=O)/C(=C(/O)c3ccc(Cl)cc3)C2c2cccc(Br)c2)no1 (stereo not given),-4,0.2,17,0.3,-8,-1.5%
NC(=O)Cn1nnc(-c2ccccc2NC(=O)c2cnccn2)n1,-2,-0.6,9,0.8,0,-0.7%
CCCCN1C(=O)C(CC(=O)NC(c2ccccc2)c2ccccc2)CC(C(=O)N(C(C)C)C(C)C)=C1C (stereo not given),3,-2.4,-7,2.2,-7,2.6%
Cc1ccc(CNc2ccc3c(c2)ncn3C(C)(C)C)cc1,-11,-0.1,-17,.,-22,1.0%
CCOC(=O)NN1C(=O)c2ccccc2NC1c1ccccn1 (stereo not given),0,-19,-10,1.4,10,-2.3%
CCC(=O)N1CCN(c2ccccc2NC(=O)Cc2ccc(Cl)cc2)CC1,-26,1.3,-6,1.6,-5,-3.8%[38.3 µM]
COc1cc(OC)cc(-c2cc3ccc(OC)cc3cn2)c1,5,0.0,-4,1.2,9,3.3%
CC(=O)c1ccc(NC(=S)NN2C(C)CCCC2C)cc1 (stereo not given),6,-2.1,-3,-0.8,-25,1.1%
CN(CC(=O)Nc1cccc(F)c1)C(=O)c1ccc(-c2ccc(Cl)cc2)o1,0,-1.9,-25,0.0,-10,0.2%

# More compounds
mol,CtBP-E1A inh,D2 ag,D2 PAM,TRPML1 agonist,Six1-Eya2 inh,PINK1 expr mod
COc1ccc(N2CCN(C(=O)CC(C)S(=O)(=O)c3ccc4c(c3)NC(=O)CO4)CC2)cc1 (stereo not given),3,3.4,4,-0.1,7,-0.2%
CCOc1ccc(N2C(=O)Nc3ccccc3C2(O)C(=O)NCc2ccc(OC)cc2)cc1 (stereo not given),0,2.5,1,-0.1,-4,1.6%
CCOC(=O)c1ccc(C(=S)N2CCCC2)cc1,-8,1.6,3,0.3,-7,2.3%
Cc1cccc(S(=O)(=O)Nc2ccc(-c3ccc4nncn4n3)cc2)c1,-3,-1.5,-5,0.4,-9,3.3%
CCCCC1=NN(C(=O)c2ccco2)C(O)(C(F)(F)F)C1 (stereo not given),0,4.2,7,-0.1,12,2.8%
C=CCn1c2ccccc2c2nnc(SCC(N)=O)nc21,2,7.4,-11,1.1,0,-1.1%
CC(C)(C)N1C(=O)c2ccc(C(=O)Nc3ccc(O)cc3)cc2C1=O,14,1.6,-1,-0.4,9,3.1%
COc1ccc(-c2nnc(SCCC(=O)O)n2C)cc1OC,3,0.7,-9,-0.6,11,-0.9%
CCN1CCN(c2ccc(NC(=O)c3ccc(Cl)c(N4CCCC4=O)c3)cc2)CC1,1,-2.3,-6,0.3,-4,0.6%
O=C(Cn1ncc2c(=O)oc3ccccc3c21)N1CCN(c2ccccn2)CC1,2,-3.3,-20,-0.1,2,-0.6%

# Reformatted with values under each structure: part of the list above
# Under each structure – CtBP-E1A inh	D2 ag	D2 PAM	TRPML1 agonist	Six1-Eya2 inh	PINK1 expr mod
CCOc1ccc(N2C(=O)Nc3ccccc3C2(O)C(=O)NCc2ccc(OC)cc2)cc1 (stereo not given)
→ 0	2.5	1	-0.1	-4	1.6%
CCCCC1=NN(C(=O)c2ccco2)C(O)(C(F)(F)F)C1 (stereo not given)
→ 0	4.2	7	-0.1	12	2.8%

# Remaining list, next part:
mol,CtBP-E1A inh,D2 ag,D2 PAM,TRPML1 agonist,Six1-Eya2 inh,PINK1 expr mod
CCCNC(=O)Nc1cc(C)on1,-2,-1.1,-19,0.4,6,0.1%
Cc1ccc(CNC(=O)CN(C)S(=O)(=O)c2cccc3nsnc23)cc1,3,-0.6,-6,0.2,6,1.1%
NC(=O)C1(Nc2ccc(Br)cc2)CCCC1,-4,0.3,-6,-0.5,-1,-1.3%
CCCc1cc(=O)[nH]c(SCC(=O)NC2CCCCC2)n1,15,-1.3,-3,-0.5,4,0.8%[38.3 µM]
O=C(N/N=C/c1cccc([N+](=O)[O-])c1)c1cc(-c2ccc3c(c2)OCO3)n[nH]1,-8,5.5,-2,0.8,-7,6.6%
COc1ccc(NC(=O)CCn2cccc2)c(OC)c1,4,-0.4,5,0.0,0,2.3%
CCc1ccccc1NC(=O)c1cc(-c2ccc(OC)cc2)on1,.,-6.8,-9,1.9&-0.9,5,-0.5%&4.1%
CCOC(=O)C1CCN(C(=S)Nc2ccc(S(N)(=O)=O)cc2)CC1,-8,-0.9,1,0.3,20,1.1%
CCN(CC)S(=O)(=O)c1cccc(C(=O)N/N=C/c2cccc(O)c2O)c1,-93*,11,?,1.2,-87*,0.9%
CCN1CCN(C(CNS(=O)(=O)c2ccc(Br)cc2)c2cccnc2)CC1 (stereo not given),10,1.5,-3,-0.1,0,0.5%

# Individual results from above:
# In TRPML1 agonist, COc1ccc(-c2nnc(SCCC(=O)O)n2C)cc1OC is listed with -0.6
# In D2 ag, COc1cc(OC)cc(-c2cc3ccc(OC)cc3cn2)c1 is listed with 0.0
# In D2 ag, CCCCN1C(=O)C(CC(=O)NC(c2ccccc2)c2ccccc2)CC(C(=O)N(C(C)C)C(C)C)=C1C (stereo not given) is listed with -2.4
# In D2 ag, NC(=O)C1(Nc2ccc(Br)cc2)CCCC1 is listed with 0.3
# In D2 ag, CCOc1ccc(N2C(=O)Nc3ccccc3C2(O)C(=O)NCc2ccc(OC)cc2)cc1 (stereo not given) is listed with 2.5
# In D2 PAM, O=C(Cn1ncc2c(=O)oc3ccccc3c21)N1CCN(c2ccccn2)CC1 is listed with -20

# Next part:
mol,CtBP-E1A inh,D2 ag,D2 PAM,TRPML1 agonist,Six1-Eya2 inh,PINK1 expr mod
O=C(NCCN1CCOCC1)C(Sc1ccccc1)c1ccccc1 (stereo not given),8,-6.0,-15,-0.8,12,-0.8%
NS(=O)(=O)c1ccc(NC(=O)Nc2ccc(S(N)(=O)=O)cc2)cc1,-2,3.2,4,0.6,2,2.6%
c1ccc(CNc2c3c(nc4ncnn24)CCC3)cc1,1,-2.3,-1,-0.5,-3,-2.4%
CN(Cc1nccn1C)C(=O)C1CCC(=O)N(CCc2ccc(Cl)cc2)C1 (stereo not given),5,1.7,-12,-0.3,-4,1.0%
Cc1ccc(-n2nc3c(c2NC(=O)c2cccs2)CS(=O)(=O)C3)c(C)c1,.,2.2,-6,2.7,0,-0.3%
COc1ccc(N(CCC#N)S(=O)(=O)c2cccc3nsnc23)cc1,18,-4.7,-9,0.0,7,-0.2%
CCc1nnc(NC(=O)c2nc3nc(C)cc(C)n3n2)s1,-5,-1.1,-1,-0.4,4,1.7%
C#CCOCCOCCOCCNc1nc(N2CCN(C(=O)[C@H]([C@@H](C)CC)n3cc(CCCCN)nn3)CC2)nc(N2CCN(C(=O)[C@H](CCCCN)n3cc(CC(C)O)nn3)CC2)n1 (stereo not given in full),5,-1.6,-26,-0.5,0,4.2%
CNC(=O)CCN(Cc1ccco1)S(=O)(=O)c1ccc(OC)c(OC)c1,-3,-4.2,2,-0.2,3,0.1%
CCOC(=O)C1CCN(C(=O)Cc2c(C(=O)O)n(CC)c3ccccc23)CC1,-3,4.1,-5,0.6,1,-5.0%[38.3 µM]

# Additional compounds follow:
mol,CtBP-E1A inh,D2 ag,D2 PAM,TRPML1 agonist,Six1-Eya2 inh,PINK1 expr mod
COc1ccccc1N1CCN(S(=O)(=O)CCNC(=O)c2ccc(OC(C)C)cc2)CC1,-4,4.7,1,0.1,0,-2.1%
Cc1cc(/C=C2/C(=N)N3C(=NC2=O)SN=C3S(C)(=O)=O)c(C)n1-c1ccccc1,-2,-5.6,-1,0.4,?,2.5%
CC(C)Oc1cccc(C(=O)C2CCCN(Cc3cnc(N4CCOCC4)s3)C2)c1 (stereo not given),-10,-0.6,-3,2.1,-9,-1.8%
COc1ccc(C(O)c2nc(-c3cccc(NC(C)=O)c3)cs2)cc1 (stereo not given),-17,0.9,-6,-0.4,8,0.0%
O=C(Nc1nccs1)c1ccc(Cl)s1,-1,-0.9,-7,0.2,2,0.9%
COc1ccc(NC(=O)CN2c3cccc4cccc(c34)S2(=O)=O)cc1,-3,-0.7,-6,-0.3,-9,0.0%
COC(=O)C1=C(C)N(C)C(=O)NC1c1cc(Cl)cc(Cl)c1OC (stereo not given),-5,-3.0,-14,1.1,-1,-0.3%[38.3 µM]
CCOc1ccc(NC(=O)Nc2nc(SCC)ns2)cc1,6,-0.9,0,0.1,1,?
O=C1CC(c2ccncc2)c2cc3c(cc2N1)OCCO3 (stereo not given),-3,4.1,0,1.2,-1,-0.9%
O=C(COC(=O)CC1CCCC1)Nc1ccc(Cl)cc1,20,-0.6,-4,-0.3,3,26%

# (cont.)
mol,CtBP-E1A inh,D2 ag,D2 PAM,TRPML1 agonist,Six1-Eya2 inh,PINK1 expr mod
CCCCNc1c(-c2ccc(OC)c(SC3CCCCC3)c2)nc2cc(C)ccn12,-19,2.8,-15,-0.3,-23,?
Cn1nc(C(C)(C)C)cc1C(=O)N1CCCCC1c1cc(C(=O)NCc2cccnc2)no1 (stereo not given),5,-5.3,-10,-0.7,4,0.8%
CCC(C)N(C)C1CCN(C(=S)Nc2cccc(SC)c2)CC1 (stereo not given),-2,-2.0,-6,-0.1,-25,-1.2%
O=C(Nc1ccc(O)c(-c2nc3ccccc3s2)c1)c1cc(=O)c2ccccc2o1,20,-3.6,0,-0.1,12,-2.4%
CCC(=O)Nc1nnc(C(C)(C)C)s1,4,-2.7,-7,-0.9,2,-2.0%
O=C1CN(C(=O)c2ccc(Cl)c([N+](=O)[O-])c2)c2ccccc2N1,0,-3.3,0,0.5,4,1.9%
O=C(CNC(=O)COc1ccccc1)NCc1ccccc1F,12,-0.8,-9,0.2,6,-0.4%
O=C(CCn1cccc(C(F)(F)F)c1=O)Nc1cccc(C(F)(F)F)c1,1,-4.4,-24,0.4,0,10%
O=C(/C=C/c1ccc(F)cc1)NCCNC(=O)/C=C/c1ccc(F)cc1,.,-1.4,-3,-0.7,-2,1.3%
Cc1ccc(CN2CCN(/N=C/c3ccccc3)CC2)cc1,-4,-4.4,-4,1.9,-8,3.4%

# The listing continues.
mol,CtBP-E1A inh,D2 ag,D2 PAM,TRPML1 agonist,Six1-Eya2 inh,PINK1 expr mod
C[C@H](CO)N1C[C@H](C)[C@@H](CN(C)C(=O)Nc2ccccc2)Oc2c(NS(=O)(=O)c3cccs3)cccc2C1=O,4,-0.6,0,-0.5,3,0.0%
COC(=O)[C@]1(CC(C)C)N[C@H](c2ccc(-c3ccc(Cl)c(Cl)c3)cc2)[C@@H]2C(=O)N(C)C(=O)[C@@H]21,-4,0.4,-4,-0.7,-13,2.3%
CC1=CC2=NC(=O)CC(C)(C(=O)N(CC(=O)NC3CCCC3)Cc3ccccc3)N2C=C1 (stereo not given),0,-2.9,4,-0.5,1,2.5%
Cc1cccc(NC(=S)N/N=C/c2ccc(Cl)c([N+](=O)[O-])c2)c1,4,0.1,-15,0.0,2,-0.1%
CC(C)NC(=O)Nc1ccc2c(c1)C(=O)N([C@H](C)CO)C[C@H](C)[C@@H](CN(C)C(=O)NC1CCCCC1)O2,4,-2.8,-4,-0.4,3,1.5%
